2A firefly = lowers the firefly signal of an FMDV 2A StopGo reporter | HEK cells with a luciferase reporter of 2A StopGo recoding | Potency, µM (doses to about 57.5 µM), without a hit: at the top dose signal change, negative = less light | 120,000 compounds, 0.23% hits | AID 1745856; active = well fitted falling curve with a large enough effect; inconclusive = small, poorly fitted or top-dose-only effect; inactive = no such curve, though single readings can be large or run the other way; further: nearly all actives have a fitted effect of over 60% in size; overnight with compound
2A Renilla = lowers the Renilla signal of an FMDV 2A StopGo reporter. Potency, µM (series often up to 57.5 µM), for inactives: top-dose signal change, negative = less light. AID 1745857. HEK cells with a luciferase reporter of 2A StopGo recoding. 120,000 compounds, 0.32% hits; active means well fitted falling curve with a large enough effect; inconclusive means small, poorly fitted or top-dose-only effect; inactive means no such curve, though single readings can be large or run the other way; further: nearly all actives have a fitted effect of over 55% in size; overnight with compound
An asterisk follows results filed as active; ? = inconclusive; [ ] = another dose, or the depositor's remark. On the % scale 0 is the no-effect control and ±100 the full control effect; potency means the concentration at half of the fitted maximal effect. No enrichment for hits; any-hit rate near 0.55%.

Each structure is followed by: 2A firefly | 2A Renilla
- COc1ccc(CNC(=O)c2nc(SCc3ccccc3F)ncc2Cl)cc1
    -18% | -11%
- COc1cc(NC(=O)c2cc3cc4ccc(OC)c(Cl)c4nc3s2)cc(OC)c1
    -7% | -10%
- O=C(CCS(=O)(=O)c1cc2c3c(c1)CCN3C(=O)CC2)NCc1ccc(Cl)cc1
    -3% | -14%
- CN(C)CCCO[C@@H]1[C@H]2OC(C)(C)O[C@H]2O[C@@H]1C(O)CO (stereo partly drawn)
    -3% | 2%
- COc1ccc(-c2nc3cc(C)ccn3c2NC(=O)c2ccc(F)cc2)cc1
    91%[activator] | -1%
- CC1(C(=O)Nc2cccc(Br)c2)Cc2ccccc2C(=O)O1 (stereo not drawn)
    0% | 38%[activator]
- Cc1cc(=O)oc2c(C)c(OC(=O)CN3C(=O)NC4(CCCC4)C3=O)ccc12
    -12% | -14%
- Cc1oc(-c2ccc(Cl)cc2)nc1CS(=O)CC(=O)NCc1ccc(Cl)cc1 (stereo not drawn)
    -15% | 2%
- COc1cc(/C=C(/C#N)C(=O)Nc2ccccc2C(F)(F)F)ccc1OCc1ccc(F)cc1
    169%[activator] | 5%
- COc1ccc(OC)c(CNC(=O)CCn2c(=O)c3cccn3c3ccc(F)cc32)c1
    -10% | -8%
- Cc1cc(NC(=O)CCc2nc3cccnc3n2-c2ccccc2)ccc1Br
    -12% | ?
- CC(=O)Nc1cc(C(=O)COC(=O)c2ccc3ccccc3c2)ccc1O
    0% | -5%[1.06 µM]
- Cc1ccc(NC(=O)COC(=O)c2ccc3ccccc3n2)c(C)c1
    ? | 22µM*
- O=C(Nc1ccccc1Cl)c1ccc2ccccc2n1
    35%[activator] | 5%
- COc1cccc(NC(=O)c2cc3c(s2)-c2ccc(Cl)cc2S(=O)(=O)C3)c1
    12% | 1%
- CCOc1ccc2oc(=O)cc(CN3CCN(C(=O)c4ccc(Cl)cc4)CC3)c2c1
    -10% | -21%
- CC(C)CC(=O)C(C#N)C(=O)Nc1ccccc1Cl (stereo not drawn)
    0% | 14%
- Cc1cccc(C(=O)n2nc(NCc3cccs3)nc2NCc2cccs2)c1
    2% | 36%
- COc1ccc(CCNC(=O)c2ccc(Cn3c(=O)c4ccccc4n(Cc4cccc(Cl)c4)c3=O)cc2)cc1OC
    -5% | 0%
- O=C(NC1(C(F)(F)F)C(=O)Nc2c1c(=O)[nH]c(=O)n2-c1ccc(F)cc1)c1cccnc1 (stereo not drawn)
    -8% | -11%
- Cc1c(C(=O)N2CCC(C)CC2)c(S(=O)(=O)Nc2cccc(C#N)c2)c(C)n1C
    -16% | 186%[activator]
- CC(=O)Nc1ccc(NC(=O)c2cc3c(=O)n(Cc4cccnc4)ccc3nc2C)cc1
    -16% | 24%
- CCN1CCN(CCOc2ccc3c(=O)c(-c4ccc(Cl)cc4)coc3c2)CC1
    -9% | 18µM*
- CCC(=O)N1c2ccccc2CC1C(=O)NCCc1ccc(C)cc1 (stereo not drawn)
    -10% | -14%
- O=C(CCc1ccccc1)NC1(C(F)(F)F)C(=O)Nc2c1c(=O)[nH]c(=O)n2Cc1ccccc1 (stereo not drawn)
    0% | -8%
- O=c1c2ccccc2ncn1Cc1ncc(-c2ccc(Cl)cc2)o1
    20% | ?
- N#C/C(=C\c1ccccc1)c1nc(-c2cc3c(ccc4ccccc43)oc2=O)cs1
    -10% | -18%
- CCc1c(C)c(C#N)c2nc3ccccc3n2c1-n1ccnc1
    -4% | -3%
- N#Cc1c[nH]n2c(NC3CCCCC3)c(-c3ccc(F)cc3)nc12
    15% | 0%
- CC(C)CNC(=O)NC(=O)C(C)Cl (stereo not drawn)
    1% | 3%

Compound profiles (already shown).
Cc1cccc(C(=O)n2nc(NCc3cccs3)nc2NCc2cccs2)c1 reads 2A firefly = 2%; 2A Renilla = 36%
CCN1CCN(CCOc2ccc3c(=O)c(-c4ccc(Cl)cc4)coc3c2)CC1 reads 2A firefly = -9%; 2A Renilla = 18µM*

More structures:
Each structure is followed by: 2A firefly | 2A Renilla
- COc1cc(Nc2nc3c(S(=O)(=O)c4cccc(Cl)c4)nnn3c3ccsc23)cc(OC)c1
    -20% | -2%
- COc1cc(NC(=O)Nc2cc3c(cc2N2CCCC2)n(C)c(=O)n3C)cc(OC)c1
    22% | 24%
- CC(C(=O)N1CCNC1=O)N(C)Cc1ccc(Cl)cc1 (stereo not drawn)
    -1% | -3%
- COc1ccc(NC(=O)C2(n3cnnn3)CCCCC2)cc1
    -5% | 7%
- CC1Cc2nc(SCC(=O)N3CCCC3)n(-c3ccc(F)cc3)c(=O)c2S1 (stereo not drawn)
    -20% | -13%
- COCCCNC(=O)c1cc(Nc2ccc(C)c(C)c2)nc2ccccc12
    0% | -2%
- O=C(CSc1nc(-c2ccc(F)cc2)nc2c1Cc1ccccc1O2)Nc1cccc(C(=O)O)c1
    16% | -2%
- CCOC(=O)c1oc2cc(O)ccc2c(=O)c1-c1ccccc1OC
    33%[activator] | 9%
- COc1cccc(CNC(=O)N2CCC(CN3CCC(C)CC3)CC2)c1
    -18% | 4%
- CN(C)c1ccc(CNC(=O)C2CCN(Cc3cc4ccccc4n3Cc3ccccc3)CC2)cc1
    -9% | 3%
- CCc1ccccc1NC(=O)C1CCC(CNS(=O)(=O)c2ccc3c(c2)CC(C)N3C(C)=O)CC1 (stereo not drawn)
    -7% | -2%
- COc1ccc(S(=O)(=O)N2CCc3ccccc32)cc1C(=O)N1CCN(c2ncccn2)CC1
    6% | 94%[activator]
- CC1CCN(C(NC(=O)c2ccco2)C(=O)c2ccccc2)CC1 (stereo not drawn)
    56%[activator] | 7%
- Cc1cc(N2CCN(c3cccc(C)c3C)CC2)n2nc(-c3ccco3)nc2n1
    -12% | -6%
- CN(C)c1ccc(NC(=O)CCSc2nc(-c3ccco3)cc(C(F)(F)F)n2)cc1
    50%[activator] | -10%
- Oc1ccccc1-c1nc(/C=C/c2ccc(F)cc2)no1
    2% | -2%
- COCCCNC(=O)c1cc(-c2cccnc2)nc2ccccc12
    8% | -6%
- COc1cc(C)cc(OC)c1OCc1ccc(C#N)cc1
    -17% | -15%
- CN1c2ccccc2-c2nc(SCC(=O)Nc3ccccc3C(F)(F)F)ncc2S1(=O)=O
    -10% | 7%
- O=C(O)CC/C(=C/c1csc(-c2ccc(Cl)cc2)n1)c1nc2ccccc2s1
    ? | 3%
- COC(=O)[C@H](CC(C)C)N(CCCc1cn(Cc2ccccc2)nn1)S(=O)(=O)c1ccccc1Br
    -4% | 173%[activator]
- COc1ccc(-c2nnc(SCC(=O)Nc3ccc(C(C)=O)cc3)nc2-c2ccc(OC)cc2)cc1
    79%[activator] | 6%
- O=C(CS(=O)(=O)c1ccc(Cl)cc1)Nc1nc2ccc(Br)cc2s1
    -16% | -13%
- CC(C)c1nnc(NC(=O)c2nn(Cc3ccccc3)c(=O)c3ccccc23)s1
    5% | 0%
- CC1(C2CC2)NC(=O)N(CC(=O)Nc2cccc3cccnc23)C1=O (stereo not drawn)
    69%[activator] | 20%
- O=C(CCn1c(=O)c2ccccc2n(Cc2ccc(Cl)cc2)c1=O)NCc1ccc2c(c1)OCO2
    -1% | -7%
- Cc1cccc(NS(=O)(=O)c2ccc3nc(-c4ccccc4)[nH]c3c2)c1C
    1% | 165%[activator]
- CC(C)N1CCN(Cc2c[nH]c3ccccc23)CC1
    -2% | -3%
- CCOP(=O)(OCC)c1nc(-c2ccc(C)cc2)oc1N1CCOCC1
    2% | -1%
- CCc1ccccc1Nc1ncnc2c1nc1n2CCCC1
    11% | -8%

(list continues)
canonical_smiles	2A firefly	2A Renilla
Cc1ccc(C(=O)O)cc1NC1(c2ccccc2)C(=O)c2ccccc2C1=O	-10%	-12%
CCN(CC)S(=O)(=O)c1ccc(NC(=O)c2cc3ccc4cccnc4c3[nH]2)cc1	-10%	-7%
Cc1ccc(-c2ccc(=O)n(CC(=O)Nc3ccc(C(C)C)cc3)n2)cc1	-7%	-1%
CCCCC(CC)CNC(=O)C1CCN(S(=O)(=O)c2cccc3nsnc23)CC1 (stereo not drawn)	-33%	-12%
O=C(Cn1c(=O)n(Cc2nc(-c3ccccc3)no2)c(=O)c2cc3c(cc21)OCO3)Nc1ccc(Cl)cc1	-13%	1%
Cc1cccc2[nH]cc(C(=O)/C(C#N)=C\c3ccccc3F)c12	130%[activator]	16%
CCC(C)NC(=O)Cn1c(=O)n(-c2ccc(OC)c(OC)c2)c(=O)c2ccccc21 (stereo not drawn)	-8%	-4%
COc1ccc(C(=O)Nc2ccccc2C(=O)OCc2cc(=O)n3c4c(sc3n2)CCCC4)cc1	-22%	-9%
COc1ccc(-c2c(C)oc3cc(OCC(=O)OC(C)(C)C)ccc3c2=O)cc1OC	28µM*	?
O=C(COC(=O)COc1cccc(Br)c1)Nc1ccccc1OC(F)F	2%	-5%
O=C(C1CC1)N(Cc1ccc2c(c1)CN(S(=O)(=O)c1cc(F)ccc1F)CCO2)c1ccccc1	0%	?
O=C(Nc1ccc2c(c1)OCCO2)c1cc2c(s1)-c1ccc(Cl)cc1S(=O)(=O)C2	10%	1%
CC(=O)N1CCN(C(=O)Cn2ccc3c(Br)cccc32)CC1	-19%	-18%
Cc1noc(-c2ccc(N3CCC(C)CC3)c([N+](=O)[O-])c2)n1	271%[activator]	6%
CCCC(=O)Nc1nnc2n1CCS2	-10%	-13%
O=C(NC(NCc1ccccc1Cl)(C(F)(F)F)C(F)(F)F)c1ccccc1	-6%	-3%
Cc1cccc(C2N3CC4(C(C)C)CN2CC(C(C)C)(C3)C4=O)c1 (stereo not drawn)	-18%	-7%
CCCCC(CC)C(=O)Nc1ccc(F)cc1F (stereo not drawn)	-8%	-13%
Cc1cccc(Nc2ccccc2C(=O)NCc2cccs2)c1C	0%	0%
CN(CC(=O)Nc1cc2[nH]c(=O)[nH]c2cc1Br)Cc1ccccc1N1CCCC1	-6%	-16%
CSc1nc(N)c2c(n1)NC1=C(C(=O)CC(C)(C)C1)C2c1ccccc1 (stereo not drawn)	24%	19%
CCCOc1ccc(C(=O)Nc2ccc(NC(=O)c3ccccc3)c(Br)c2)cc1	-8%	-4%
CCN(Cc1ccccc1)C(=S)Nc1ccccc1C	6%	14%
O=C(O)CNS(=O)(=O)c1cc(C(=O)O)ccc1Cl	10%	7%
Cc1ccc(-c2nn(CC(N)=O)c(=O)c3ccccc23)cc1S(=O)(=O)N(C)C	22%	6%

Random excerpt: 5 entries already listed
canonical_smiles	2A firefly	2A Renilla
CC(=O)Nc1cc(C(=O)COC(=O)c2ccc3ccccc3c2)ccc1O	0%	-5%[1.06 µM]
CCCCC(CC)C(=O)Nc1ccc(F)cc1F (stereo not drawn)	-8%	-13%
CC1CCN(C(NC(=O)c2ccco2)C(=O)c2ccccc2)CC1 (stereo not drawn)	56%[activator]	7%
Cc1cccc(Nc2ccccc2C(=O)NCc2cccs2)c1C	0%	0%
CCC(C)NC(=O)Cn1c(=O)n(-c2ccc(OC)c(OC)c2)c(=O)c2ccccc21 (stereo not drawn)	-8%	-4%

(cont.)
canonical_smiles	2A firefly	2A Renilla
COC(=O)C(C)Sc1nnc(CSc2ncccn2)n1-c1ccc(Cl)cc1 (stereo not drawn)	0%	0%
Cc1cc(C)c(NC(=O)c2c(C)nn(-c3ccc(F)cc3)c2-n2cccc2)c(C)c1	9%	20%
COc1ccc2c(c1)c1c(c(=O)n(CCc3ccccc3)c(=O)n1Cc1cccc(Cl)c1)n2C	-4%	-4%
Cc1ccc(N(Cc2cc3ccc(C)cc3[nH]c2=O)S(C)(=O)=O)cc1	10%	41%[activator]
CCOC(=O)c1c(C)oc2nc(C)nc(N3CCN(c4cc(Cl)ccc4C)CC3)c12	-6%	-8%
O=C(NCC(F)(F)F)C1CCCC(C(=O)NCC(F)(F)F)C1 (stereo not drawn)	5%	2%
CCN(CC)S(=O)(=O)c1cc(-c2nc(-c3cccc(F)c3)no2)sc1C	102%[activator]	2%
Clc1ccccc1-c1nnc2sc(Cn3cccn3)nn12	14%	-14%
COc1ccccc1NC(=O)COc1nc(CC(C)C)c2c(c1C#N)CCCC2	10%	2%
COc1ccccc1CNc1ccc(-c2nc(-c3cccnc3)no2)cc1[N+](=O)[O-]	16%	-7%
CC(=O)C[C@](N)(c1ccccc1)C(F)(F)F	-2%	4%
O=C(O)C1CC(=O)N(c2ccc(S(=O)(=O)Nc3ccc(F)c(F)c3)cc2)C1 (stereo not drawn)	0%	7%
COc1cc(F)c(S(=O)(=O)N2CCC(C(N)=O)CC2)cc1OC	-7%	13%
O=C(COC(=O)COc1ccccc1F)Nc1ncc(C(F)(F)F)cc1Cl	1%	-10%
Cn1cnnc1-c1cccc(NC(=O)Cc2cccc(F)c2)c1	8%	58%[activator]
O=C(/C=C/c1ccccc1)Nc1cccc2c1CCCC2	27%	7%
Cc1ccc2c(C)c(C(=O)Nc3nonc3-c3cccs3)oc2c1	-7%	?
COc1cccc(NC(=O)N2CCN(c3nc(C)cc(Nc4ccc(C)cc4)n3)CC2)c1	?	?
Cc1ccc(Cl)cc1-n1ncc2c(NCCCc3ccccc3)ncnc21	?	?
Cc1ccc(CSc2nnc(C3CCN(C(=O)OC(C)(C)C)CC3)o2)cc1	-23%	-21%
Cc1nc(-n2nc(C)c(Cc3ccc4c(c3)OCO4)c2C)sc1C(=O)Nc1cccc(Cl)c1	-18%	-15%
CCN(c1cccc(C)c1)S(=O)(=O)c1nnc(NC(=O)c2ccccc2Cl)s1	-11%	70%[activator]
CCOc1ccc(NC(=O)N2CCN(Cc3nc(-c4ccccc4)oc3C)CC2)cc1	-12%	-20%

Compound activity from PubChem.
